Bioassay records deposited in PubChem BioAssay by National Center for Advancing Translational Sciences (NCATS).
TRPV1 potentiator – potentiators of human vanilloid receptor 1 (TRPV1) | TRPV1-expressing cells, Fluo-8 calcium influx, capsaicin EC20 potentiation; host cell line not named in the record; control for the full effect not named in the record | potentiation, % at 8.33 µM | actives 0.02% (n = 320,000); active means potentiation above 80%; inconclusive means 30% to 80%; inactive means below 30%; note: 0% is about no effect
Target sequence (Q8NER1 whole entry, looked up): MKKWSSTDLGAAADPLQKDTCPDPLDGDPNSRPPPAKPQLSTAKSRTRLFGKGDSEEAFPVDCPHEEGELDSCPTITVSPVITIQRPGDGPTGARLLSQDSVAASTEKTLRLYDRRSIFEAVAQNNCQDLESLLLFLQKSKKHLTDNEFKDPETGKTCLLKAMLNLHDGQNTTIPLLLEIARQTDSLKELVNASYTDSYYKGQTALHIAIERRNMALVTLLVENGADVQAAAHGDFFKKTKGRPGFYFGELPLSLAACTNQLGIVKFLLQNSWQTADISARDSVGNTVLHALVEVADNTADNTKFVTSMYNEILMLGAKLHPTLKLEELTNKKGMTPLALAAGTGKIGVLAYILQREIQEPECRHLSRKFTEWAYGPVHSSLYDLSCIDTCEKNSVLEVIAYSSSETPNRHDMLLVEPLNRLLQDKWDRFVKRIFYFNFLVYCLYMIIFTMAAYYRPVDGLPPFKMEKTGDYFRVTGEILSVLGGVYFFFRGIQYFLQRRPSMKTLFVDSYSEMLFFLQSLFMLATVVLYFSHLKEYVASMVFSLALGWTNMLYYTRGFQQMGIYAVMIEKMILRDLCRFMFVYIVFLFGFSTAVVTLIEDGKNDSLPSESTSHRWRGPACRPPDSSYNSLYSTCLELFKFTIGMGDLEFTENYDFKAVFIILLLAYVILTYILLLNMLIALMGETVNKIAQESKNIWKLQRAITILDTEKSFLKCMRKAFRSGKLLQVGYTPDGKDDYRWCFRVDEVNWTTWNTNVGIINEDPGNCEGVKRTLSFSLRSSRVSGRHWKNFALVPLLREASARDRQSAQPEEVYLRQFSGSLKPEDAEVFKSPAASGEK
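Cells expressing TRPV1 were dye-loaded with Fluo-8 and read kinetically: 10 s baseline, 3 min after compound (agonist portion), then 2 min after EC20 capsaicin (allosteric enhancer portion). Calcium-bound dye fluorescence at 480/520 nm.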
CtBP-E1A inh – CtBP/E1A binding inhibition | actives 0.49% (n = 340,000) | AlphaScreen GST-E1A/His-CtBP binding, 1536-well; stronger effect = lower value; control for the full effect not named in the record | AID 651724 | activity change, % (no concentration beside the values); in the data active means activity change below about -65%; inconclusive means about -30% to -65%; inactive means above about -30%; note: % is set by controls: 0 for no effect and ±100 for the full control effect; compound concentration not given in the record
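AlphaScreen with 125 nM GST-E1A and 125 nM His-CtBP (5X stocks) in Tris pH 8.0, 300 mM NaCl, BSA, Tween 20, TCEP. Compounds preincubated 2 h at 37 deg C, then glutathione donor/nickel acceptor beads added for 1 h at 37 deg C in dark.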
Menin-MLL FL inh – menin-MLL binding inhibition, fluorescein peptide | FP activity change, % at 61.4 µM | AID 1766 | Fluorescence polarization, fluorescein-MLL peptide displacement from menin | 290,000 tested, under 10 active; inconclusive = falling polarisation curve, or a change in total fluorescence; inactive = total fluorescence flat and polarisation flat or rising; no compound was filed as active; the % refers to the polarisation; negative = inhibition;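 note: % of control where 0% means no effect; inhibitors lower the polarisation; unlabelled MLL peptide was the positive control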
ClpP mod – qHTS Assay for Activators of ClpP; ATP-dependent Clp protease proteolytic subunit (Bacillus subtilis (strain 168)), P80244; actives 1.9% (n = 340,000); Potency, µM (titrated, usually from 57.5 µM), without a hit: at the highest dose activity change, negative = active; purified B. subtilis ClpP, FRET peptide cleavage, 20 min; active = well fitted falling curve with a large enough effect; inconclusive = small, poorly fitted or top-dose-only effect; inactive = no such curve, though single readings can be large or run the other way; note: potency is the fitted concentration of half-maximal effect; the source files actives as falling curves though it sought activators and does not explain the sign; nearly all actives have a fitted effect of over 65% in size; many hits overshoot -100%
Target sequence (P80244 whole entry, looked up): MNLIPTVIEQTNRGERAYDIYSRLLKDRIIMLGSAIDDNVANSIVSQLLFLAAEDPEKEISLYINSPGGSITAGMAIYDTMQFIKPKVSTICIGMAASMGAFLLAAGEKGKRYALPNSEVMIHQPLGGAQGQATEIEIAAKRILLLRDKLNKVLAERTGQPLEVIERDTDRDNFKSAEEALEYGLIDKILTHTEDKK
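Buffer: 100 mM Tris/HCl pH8, 100 mM KCl, 0.05% low protease BSA, 2.5% glycerol, 0.01% Tween-20. ClpP 10 microg/mL final; 20 min RT; delta FRET normalized to ADEP and DMSO controls.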
gsp ag – activates gsp, the McCune-Albright syndrome mutation; gsp mutant cells, cAMP HTRF, 30 min; control for the full effect not named in the record; Potency, µM (series often up to 76.9 µM), without a hit: at the highest dose activation (cAMP increase), usual class: activators; actives 0.13% (n = 340,000); active = well fitted activation curve with a large enough effect; inconclusive = small, poorly fitted or top-dose-only effect, or another doubt; inactive = no such curve, though single readings can be large or run the other way; cell line not stated here;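 note: phosphodiesterase inhibitor Ro 20-1724 added with compounds to block cAMP breakdown; potency is the fitted concentration of half-maximal effect; nearly all actives have a fitted effect of over 60% in size; about a fifth of the inactives were tested at one dose only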
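Cells stably selected in G418 were plated at 2000/well, grown 16-24 hr, then given compounds in DMSO with the PDE inhibitor […] (300 uM solution added) for 30 min at 37C; cAMP was read by HTRF.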
Sfp inh – inhibitors of Bacillus subtilis Sfp phosphopantetheinyl transferase; Potency, µM, without a hit: max response, negative = inhibition, most hits filed as inhibitors; actives 3.5% (n = 310,000); Q9F4F7; Biochemical Sfp PPTase activity, qHTS; AID 1490; active = well fitted inhibition curve with a large enough effect; inconclusive = small, poorly fitted or top-dose-only effect, or another doubt; inactive = no such curve, though single readings can be large or run the other way;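 note: the enzyme is Sfp with the accession as filed and its product quenches rhodamine fluorescence; potency is the fitted concentration of half-maximal effect; 0% = enzyme reaction without inhibitor and -100% = no enzyme wells; top concentration of the series not given in the record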
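With Hepes-Na pH 7.6 buffer containing 10 mM MgCl2, Sfp (15 nM) modified BHQ-2-YbbR (12.5 uM) using rhodamine-CoA (5 uM). Two reads 30 minutes apart at 525/598 nm yielded each well's rate.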
gsp antagonist – gsp mutant antagonism; gsp-mutant cells, cAMP HTRF, 30 min; control for the full effect not named in the record; Potency, µM (series often up to 76.9 µM), inactives show at the top dose activity change, negative = inhibition, actives largely listed as inhibitors; actives 0.4% (n = 340,000); AID 624288; active = falling curve of any shape with a large fitted effect; inconclusive = falling curve, mostly with a smaller effect; inactive = flat or rising curve; cell line not stated here;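 note: intracellular cAMP measured with PDE inhibitor Ro 20-1724 present during compound exposure; potency is the fitted concentration of half-maximal effect; % is set by controls: 0 for no effect and ±100 for the full control effect; nearly all actives have a fitted effect of over 65% in size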
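Measurement of cellular cAMP by homogeneous time-resolved fluorescence following a 30 min compound exposure at 37C. The PDE inhibitor […] was present throughout; the assay buffer was DPBS with 0.05% BSA and 0.005% Tween 20.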
Numbers without * were called inactive; u = inconclusive; x = not tested or not shown; & = joins results of further samples; [ ] = remark or other dose.

SMILES	TRPV1 potentiator	CtBP-E1A inh	Menin-MLL FL inh	ClpP mod	gsp ag	Sfp inh	gsp antagonist
CC(C)Oc1ccc(CN2CCCC(CO)(Cc3ccc(F)cc3)C2)cc1 (configuration not stated)	-20	-2	8.0	x	-14%	-1%	21%
CCC(=O)N1CCC(C(N)=O)(N2CCCCC2)CC1	9	2	1.4	x	7%[15.4 µM]	4%	8%
C=CCOC(=O)C1=C[C@H](c2csc3ccccc23)C[C@H](OCc2ccc(CO)cc2)O1	x	-7	x	-2.4%	x	x	-27%
CCC1(C)NC(=O)N(CC(=O)Nc2cc(C)on2)C1=O (configuration not stated)	x	x	x	-2.8%	-1%	x	-2%
CCN(CC)S(=O)(=O)c1ccc(C)c(NC(=O)CSc2nc3ccccc3[nH]2)c1	-4	-11	0.8	0.4%	-4%	13%	-19%
O=S(=O)(Nc1ccc(F)cc1)N1CCOCC1	12	6	-5.5	x	-5%	16%	7%
O=C(COC(=O)c1c[nH]c(=O)[nH]c1=O)Nc1ccccc1Br	8	x	4.1	0.6%	-11%	13%	1%
CC(C)C(NC(=O)c1ccco1)C(=O)OCC(=O)Nc1ccc(C(N)=O)cc1 (configuration not stated)	8	13	7.2	x	7%[15.4 µM]	19%	-4%
Nc1c(C(=O)NCC2CCCO2)c2nc3ccccc3nc2n1-c1ccccc1 (configuration not stated)	-9	17	0.0	16µM*	18%	6%	-24%
COc1cc(/C=C2\SC(=S)NC2=O)ccc1OS(=O)(=O)c1ccccc1	8	x	u	x	x	50µM*	x
CC(=O)c1cccc(OCc2cc(C(=O)N3C[C@H]4CC[C@H]3C4)no2)c1	-17	0	x	-2.4%	u	3%	-7%
O=C(COc1ccccc1)NCC(=O)N/N=C/c1ccc(Cl)cc1	-2	6	3.0	-0.9%	u	14%	-5%
O=C(CCS(=O)(=O)c1cc2c(cc1Cl)NC(=O)CO2)NCc1ccccc1	-6	0	-1.5	0.1%&1.2%	-10%	24%	1%
COc1ccc(OC)c(C2Nc3ccccc3NC3=C2C(=O)CC(C)(C)C3)c1 (configuration not stated)	0	x	-0.2	-2.6%	-27%	11%	-2%
CCCNC(=O)NC(=O)CSc1ncc(C(F)(F)F)cc1Cl	-13	-13	0.0	-1.9%	0%	11%	12%
CCNc1ccc(S(=O)(=O)NCCN(C)C)cc1[N+](=O)[O-]	-4	x	-2.7	-0.5%	u	8%	13%
Fc1ccccc1NC(=S)N(CCN1CCCCC1)Cc1ccco1	7	-1	-1.2	x	9%[15.4 µM]	11%	1%
CC1(C)Cc2ccccc2C(/C(=N\Nc2cccc(Cl)c2)C(N)=O)=N1	-10	u	0.8	-0.5%	-4%[15.4 µM]	1%	-24%
Cc1cc(C(=O)N/N=C/c2ccc(Br)o2)n[nH]1	-17	x	2.8	-6.1%	4%	11%	-2%
CC(=O)SC1CC(=O)N(c2ccc(C(C)(C)C)cc2)C1=O (configuration not stated)	2	-4	3.0	x	16%[15.4 µM]	6%	-11%
CCN(CC)c1ccc(/C=C/c2cccc[n+]2C)c(OC)c1	5	0	u	x	9%	-1%	u
CCCn1nc(CC(=O)OCC)c2ccccc2c1=O	-1	-11	-0.4	1.4%	-20%	21%	16%
COc1ccc(CCn2c(=N)c(C(=O)NC3CCCC3)cc3c(=O)n4ccccc4nc32)cc1OC	-10	-4	x	-8.0%	u	6%	3%
O=C1OCCC1Sc1nnc(-c2cccc(Br)c2)o1 (configuration not stated)	1	-2	5.2	0.9%	21%	7%	-4%
CC(C)(C)NC(=O)CSC(=Nc1ccc(F)cc1)NC#N	19	-14	u	-0.3%	-1%	2%	-35%

(more compounds)
SMILES	TRPV1 potentiator	CtBP-E1A inh	Menin-MLL FL inh	ClpP mod	gsp ag	Sfp inh	gsp antagonist
CC(NC(=O)CCN1C(=O)c2ccccc2S1(=O)=O)c1ccccc1 (configuration not stated)	-6	4	x	x	2%[15.4 µM]	x	4%
C/C(=N\NC(=O)c1cc(-c2ccccc2C)nc2ccccc12)c1cccnc1	1	-3	-2.6	-1.5%	u	14%	19%
COC(=O)c1c(C)nc(C)c2c(=O)oc3ccccc3c12	8	-14	-0.7	-0.1%	u	10%	15%
CC(=O)O[C@]1(C(C)=O)CC[C@H]2[C@@H]3C=C(Cl)C4=CC(=O)CC[C@]4(C)[C@H]3CC[C@@]21C	8	-2	-2.6&0.4	0.9%	x	-11%&-14%	-20%
Cc1ccc(S(=O)(=O)N/N=C/c2ccccc2F)cc1[N+](=O)[O-]	8	-6	-1.2	-2.1%	-8%	13%	9%
COC(CN(C(=O)CCl)C(C(=O)NC1CCCC(C)C1C)c1ccc(C)cc1)OC (configuration not stated)	-10	-4	4.7	0.4%	-22%	4%	-3%
CCc1nnc(NC(=O)c2cccnc2)s1	8	-1	2.6	-0.4%	u	7%	2%[15.4 µM]
O=C(Nc1ccc(F)c(F)c1)C1CCCCC1	-12	3	x	2.3%	x	x	9%
CCCSc1oc(-c2ccco2)nc1S(=O)(=O)c1ccc(C)cc1	22	-7	-0.4	x	1%	-3%	-11%
O=C(Nc1ccc(S(=O)(=O)Nc2ccccn2)cc1)c1ccccc1	-9	2	x	-13%	6%[15.4 µM]	u	4%
COCc1cc(NCc2ccc(Cl)cc2)nc(C)n1	u	-2	0.6	-2.6%	-1%	6%	11%
O=C(Cn1c(-c2ccccn2)nc2ccccc21)N/N=C/c1ccccn1	16	0	3.3	-18%	3%	u	0%
O=C1CCCc2nc3c(cc21)C(O)Oc1c-3ccc2ccccc12 (configuration not stated)	1	-14	-0.6	-3.0%	2%[15.4 µM]	16%	5%
COc1ccc(N(CC(=O)NC2CCCC2)C(=O)Cn2nnc(-c3ccc(F)cc3)n2)cc1	12	-7	0.0	x	23%	5%	-11%
O=C(COC(=O)c1ccccn1)NC12CC3CC(CC(C3)C1)C2	-6	-8	-0.6	-1.9%	23%	17%	4%
CN(C)S(=O)(=O)c1cccc(NS(=O)(=O)c2ccc(Cl)s2)c1	8	3	x	1.3%	-22%	9%	-5%
C/C(Cc1ccccc1)=N\NC(=O)CCCCCC(=O)N/N=C(\C)Cc1ccccc1	-8	-2	0.3	-1.5%	0%	-11%	9%
CC(C)C(NC(=O)c1c(F)cccc1F)C(=O)N1CCN(S(=O)(=O)c2ccc(F)cc2)CC1 (configuration not stated)	-2	-1	x	1.5%	-10%	x	-1%
N/C(=N\NC(=O)c1sccc1OCc1ccc(Cl)cc1Cl)c1ccccn1	-5	-8	5.9	x	-4%	6%	-19%
COC(=O)c1cc(S(=O)(=O)NCC2CCN(Cc3ccc(Cl)cc3)CC2)c[nH]1	-2	2	-0.5	-0.5%	2%	5%	14%
CC(NC(=O)CSc1nc(=O)cc(N)n1-c1ccccc1)c1ccccc1 (configuration not stated)	-10	1	4.7	-2.3%	4%	23%	10%
C[C@H]1C=C(C(=O)O)O[C@@H](OCc2ccc(CO)cc2)C1	x	2	x	-0.1%	x	x	4%
COc1ccc(/C=C/C(=O)OCC(=O)N2CCCCCC2)cc1OC	x	3	x	x	-11%	x	0%
O=C(Nc1ccc2c(c1)C(=O)N(c1ccccc1)C2=O)c1cccs1	13	x	0.8	3.9%	-1%	15%	-5%
COC(=O)c1ccccc1OC(=O)c1ccc(Br)o1	-6	7	3.3	1.3%	11%	5%	3%

Later entries:
SMILES	TRPV1 potentiator	CtBP-E1A inh	Menin-MLL FL inh	ClpP mod	gsp ag	Sfp inh	gsp antagonist
CN(CC(=O)Nc1ccccc1Cl)C(=O)Cn1cnc2ccccc2c1=O	-4	4	x	x	-6%[15.4 µM]	x	4%
O=C(COC(=O)c1ccc(F)cc1F)NC1CC1	-21	-2	0.8	x	0%[15.4 µM]	0%	2%
COc1ccc(-c2nc3cc([N+](=O)[O-])ccc3o2)cc1OC	-2	-11	3.8	-1.1%	9%[15.4 µM]	7%	5%
CCN(CC)c1ccc(/C=N/N2CCN(Cc3cccc4ccccc34)CC2)c(O)c1	12	u	1.3	-4.1%	29%	16%	1%
O=C(O)[C@H]1CCCC[C@H]1C(=O)Nc1ccc(S(=O)(=O)N2CCOCC2)cc1	-2	0	x	x	2%[15.4 µM]	14%	12%
Cc1cccn2c(=O)c(/C=C(\C#N)C(=O)NC3CCS(=O)(=O)C3)c(Oc3ccccc3Cl)nc12 (configuration not stated)	29	-21	-6.4	x	u	-10%	-5%
Cc1cc(CNC(=O)Cc2c(F)cccc2Cl)nn1C	0	47	2.5	0.0%	-10%	2%	-2%
CCCCOC(=O)Nc1ccc(S(=O)(=O)Nc2onc(C)c2C)cc1	-7	x	-1.8	-1.3%	27%	8%	6%
CC(C(=O)OCC(=O)N1CCN(c2ccccc2)CC1)N1C(=O)c2ccccc2C1=O (configuration not stated)	9	x	x	-2.1%	-4%	x	-3%
O=C1C(=NO)CCc2ccccc21	x	6	x	-4.7%	0%	x	11%
C[C@H](NC(=O)[C@@H]1CSC2c3ccccc3C(=O)N21)C(=O)NCc1c(F)cccc1Cl (some centres not stated)	-22	x	x	2.1%	-70%[inhibitor]	9%	-5%
O=C(CSc1nnc(-c2ccncc2)n1-c1ccccc1)Nc1ccc(C(=O)O)cc1	-7	0	6.7	x	14%	-16%	6%
Cc1nc2ccc(Cl)cc2nc1C	17	0	1.4	-3.0%	7%[15.4 µM]	10%	3%
CN(CC(=O)Nc1c(Cl)cccc1Cl)C(=O)Cc1ccc(S(=O)(=O)N2CCOCC2)s1	10	-1	x	1.2%	-3%	9%	9%
CCOC(=O)c1c(C)n(CCOc2ccccc2)c2ccc(O)cc12	10	-2	-7.9	-0.4%	29%[15.4 µM]	71µM*	-12%
N=c1c2c(-c3ccccc3)c(-c3ccccc3)n(Cc3ccco3)c2ncn1CCCn1ccnc1	-8	-9	0.9	1.6%	0%	-7%	-1%
O=C(O)c1ccccc1C(=O)Nc1ccc(S(=O)(=O)Nc2ccc(F)cc2)cc1	6	x	-8.4	-0.1%	u	14%	11%
COc1ccc(CN(C)C(=O)CCN(c2ccccc2)S(=O)(=O)c2ccc(C)cc2)c(OC)c1	-4	1	x	0.5%	-8%	x	u
Cc1ccc(-c2ccc(SCC(=O)N3CCCc4ccccc43)nn2)cc1	-7	x	0.7	x	x	-24%	x
